High-throughput results as filed in PubChem BioAssay.
PINK1 expr mod: changes PINK1 expression; PINK1 immunofluorescence, high-content cytometry, 24 h; 410,000 tested, 0.2% active; Potency, µM (top dose mostly 76.6 µM), for the others: at the highest dose activation (PINK1 increase), actives largely listed as activators; AID 624263; active = well fitted activation curve with a large enough effect; inconclusive = small, poorly fitted or top-dose-only effect; inactive = flat fitted curve, though single readings scatter; cell line not stated here;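 also: potency is read from the fitted curve at half-maximal effect; % of control where 0% means no effect; nearly all actives have a fitted effect of over 65% in size; a mitochondrial uncoupler was the plate control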
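PINK1 protein level read as immunofluorescence by microplate cytometer in a fixed, stained stable cell line after 24 h exposure to five compound concentrations, with CCCP as control.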
D2 ag: agonists of human D2 dopamine receptor (beta-arrestin); activation, % (concentration not given with the values); DiscoveRx PathHunter D2 beta-arrestin, luminescence, 90 min; 100% = 57 uM dopamine signal; AID 624465; 360,000 tested, 0.084% active; P14416; in the data active = activation above about 40%; inconclusive = about 15% to 40%; inactive = below about 15%; also: compound concentration not given in the record; the text of the record calls up to 30% inactive
Target sequence (P14416 whole entry, looked up): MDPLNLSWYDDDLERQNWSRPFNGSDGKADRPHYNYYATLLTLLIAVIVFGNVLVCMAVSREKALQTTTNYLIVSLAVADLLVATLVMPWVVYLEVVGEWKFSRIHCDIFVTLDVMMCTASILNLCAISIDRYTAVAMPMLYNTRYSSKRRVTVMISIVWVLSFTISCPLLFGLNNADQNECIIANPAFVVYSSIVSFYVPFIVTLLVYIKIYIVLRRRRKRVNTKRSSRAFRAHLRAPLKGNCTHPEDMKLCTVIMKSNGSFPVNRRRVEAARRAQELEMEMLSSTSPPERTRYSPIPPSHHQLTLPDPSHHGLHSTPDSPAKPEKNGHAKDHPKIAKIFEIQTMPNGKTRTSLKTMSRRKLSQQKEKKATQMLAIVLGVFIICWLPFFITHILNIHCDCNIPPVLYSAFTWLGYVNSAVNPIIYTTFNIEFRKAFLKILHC
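Agonist mode: compounds alone added to overnight-plated D2 PathHunter cells for 90 min at 37 C, with 57 uM final dopamine (EC100) defining full response. Beta-arrestin recruitment detected by chemiluminescent reagent, read after 1 h at ambient temperature.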
TRPML1 blocker: human mucolipin-1 channel inhibition; Q9GZU1; TRPML1-inducible cells, Ca2+ dye fluorescence, FDSS; stronger effect = lower value; inhibition of EC80 agonist-evoked calcium signal; activity change, negative = inhibition, % (no concentration beside the values); 390,000 tested, 0.02% active; in the data active means activity change below about -50%; inconclusive means about -30% to -50%; inactive means above about -30%;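 also: stimulus is agonist 54-4 at its EC80 concentration; % is scaled to controls: 0 for no effect and ±100 for the full control effect; compound concentration not given in the record; the text of the record puts the active cut at -80%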
Target sequence (Q9GZU1 whole entry, looked up): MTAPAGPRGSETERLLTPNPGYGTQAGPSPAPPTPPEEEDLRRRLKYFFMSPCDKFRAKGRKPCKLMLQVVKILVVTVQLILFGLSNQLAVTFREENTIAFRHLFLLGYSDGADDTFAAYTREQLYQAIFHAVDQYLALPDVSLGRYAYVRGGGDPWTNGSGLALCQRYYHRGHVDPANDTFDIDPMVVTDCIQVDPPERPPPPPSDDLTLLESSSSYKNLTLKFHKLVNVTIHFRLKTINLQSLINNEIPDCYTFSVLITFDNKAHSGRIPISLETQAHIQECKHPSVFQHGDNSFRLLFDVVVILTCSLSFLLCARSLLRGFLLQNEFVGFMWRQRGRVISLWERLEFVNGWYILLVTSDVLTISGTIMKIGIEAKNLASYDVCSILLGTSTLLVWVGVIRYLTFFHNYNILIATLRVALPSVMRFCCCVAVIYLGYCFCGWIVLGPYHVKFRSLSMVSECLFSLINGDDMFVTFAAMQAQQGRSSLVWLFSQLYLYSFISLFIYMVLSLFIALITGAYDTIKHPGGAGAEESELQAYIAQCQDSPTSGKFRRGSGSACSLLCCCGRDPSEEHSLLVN
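Calcium fluorescence in TRPML1-DL cells induced overnight with Tet: a 110 s read after compound pin addition, then a 110 s antagonist read after challenge with 54-4 at 4 uM final (EC80).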
TRPML1 agonist: agonists of human TRPML1 channel | TRPML1-expressing cells, Ca2+ dye fluorescence, FDSS; host cell line not named in the record; reference of the full effect not given here | Q9GZU1 | AID 624414 | activation, % (no concentration beside the values) | 410,000 tested, 0.12% active; in the data active = activation above about 50%; inconclusive = about 30% to 50%; inactive = below about 30%; also: 0% is about no effect; the text of the record puts the active cut at 80%
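Kinetic FDSS Ca2+ read in Tet-induced TRPML1-DL cells (ABD Ca8 dye plus quencher, 45-90 min RT loading): baseline, then compound, then 110 s agonist window; EC80 agonist 54-4 at 4uM final added afterwards for a 110 s antagonist window.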
CtBP-E1A inh: blocks the CtBP interaction with E1A. AlphaScreen GST-E1A/His-CtBP binding, 1536-well; stronger effect = lower value; control for the full effect not named in the record. activity change, % (concentration not given with the values). 340,000 tested, 0.49% active; in the data active means activity change below about -65%; inconclusive means about -30% to -65%; inactive means above about -30%; also: % is scaled to controls: 0 for no effect and ±100 for the full control effect
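AlphaScreen with 125 nM GST-E1A and 125 nM His-CtBP (5X stocks) in Tris pH 8.0, 300 mM NaCl, BSA, Tween 20, TCEP. Compounds preincubated 2 h at 37 deg C, then glutathione donor/nickel acceptor beads added for 1 h at 37 deg C in dark.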
Six1-Eya2 blk: inhibitors of human Six1/Eya2 interaction; Q15475+O00167; AlphaScreen GST-Six1/His-Eya2 binding, biochemical; stronger effect = lower value; control for the full effect not named in the record; activity change, % (test concentration not listed); 360,000 tested, 0.56% active; AID 651725; in the data active = activity change below about -65%; inconclusive = about -30% to -65%; inactive = above about -30%; also: % is scaled to controls: 0 for no effect and ±100 for the full control effect; compound concentration not given in the record
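GST-Six1 + His-Eya2 (5X stock: 250/500 nM); Tris pH 8.0, 300 mM NaCl, 0.05% BSA, 0.02% Tween 20; GSH donor/Ni acceptor beads; 1 h 37 °C dark; AlphaScreen readout.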
The depositor's hits bear a star; u = inconclusive; x = not tested or not shown; & = joins results of further samples.

SMILES | PINK1 expr mod | D2 ag | TRPML1 blocker | TRPML1 agonist | CtBP-E1A inh | Six1-Eya2 blk
Cc1sc2ncn(CC(=O)Nc3ccc(F)cc3F)c(=O)c2c1S(=O)(=O)N1CCC(C)CC1 | 2.1% | x | 5.0 | -0.4 | x | x
CCc1nnc(SCC(=O)Nc2nnc(C)s2)n1CC1CCCO1 (stereo not given) | -1.9% | -6.3 | 14.4 | -0.1 | 12.5 | -4.2
O=C(/C=C/c1ccccc1)N1CCC(N2CCC(C(=O)N3CCOCC3)CC2)CC1 | -1.1% | -2.6 | 17.1 | 0.3 | -12.4 | -12.6
c1cc(-c2cc3cc(N4CCOCC4)ccc3o2)cs1 | 7.5% | -1.2 | -12.8 | -0.5 | -3.7 | 1.9
CC(=O)N1CCN(C(=O)c2cc(-c3cccc4ccccc34)nc3ccccc23)CC1 | 4.6% | 0.5 | 0.2 | -0.4 | -9.0 | -5.1
Cc1nc(-c2ccc(NC(=O)/C=C\C(=O)O)cc2)cs1 | -0.2% | -4.0 | 11.8 | 1.5 | -10.9 | -11.6
COc1ccccc1OCC(=O)NCCSCc1ccccc1Cl | -0.2% | 0.4 | -12.5 | 3.1 | -4.6 | 2.1
COc1ccc(-c2c(-c3ccc(OC)c(C)c3O)n[nH]c2C)cc1 | -1.5% | 12.5 | -5.6 | -0.2 | -9.5 | -9.9
CCC(C)NC(=O)Nc1ccc(F)c(Cl)c1 (stereo not given) | 0.5% | -3.3 | -1.7 | 0.5 | 10.6 | 3.7
Cc1cc(C)cc(NS(=O)(=O)c2c(C)nc3scc(C)n3c2=O)c1 | 3.5% | x | -17.8 | -0.1 | x | x
Cc1ccc(S(=O)(=O)N2CCN(C(=O)c3ccccn3)CC2)c(C)c1 | -0.1% | 1.8 | -10.9 | 0.9 | 4.7 | -6.1
CC1(C)CC(=O)C2=C(C1)N(CCN1CCOCC1)C1=C(C(=O)CC(C)(C)C1)C2c1ccc(Cl)cc1 | -0.4% | -4.0 | -1.7 | 1.0 | 4.9 | 2.8
O=C1OC(c2ccccc2)(N(Nc2ccccc2)c2ccccc2)c2ccccc21 (stereo not given) | -0.1% | 1.8 | -10.2 | 1.0 | -5.4 | -8.7
CCOC(=O)CN1C(=O)C2Cc3ccccc3CN2C1=S (stereo not given) | -0.1% | -8.0 | 30.2 | 0.1 | 5.9 | -2.1
CCOc1cc(/C=N/NC(=O)OC)ccc1OCCSc1ccc(Cl)cc1 | 3.3% | -5.9 | 14.7 | -1.7 | 6.3 | -0.6
CCC(=O)Nc1ccc(-c2nnc(SCC(=O)NCC3CCCO3)n2C)cc1 (stereo not given) | -0.5% | -3.2 | 9.2 | 0.4&-0.2 | 1.1 | 3.7
Cc1ccc(C)c(OCC(=O)Nc2ccccc2N2CCCC2)c1 | 0.1% | -4.2 | 11.9 | 3.5 | -14.4 | -17.7
CN(Cc1ccccc1)Cc1nc2c([nH]1)c(=O)[nH]c(=O)n2C | 0.4% | 1.5 | 11.2 | -0.1 | -3.5 | 3.3
CC1CN(CCCCSc2ccc(Cl)cc2)CC(C)O1 (stereo not given) | 1.7% | 0.0 | -16.5 | -0.3 | -10.6 | 7.3
Cc1nc2cc(S(=O)(=O)N3CCC(C(=O)O)CC3)ccc2n1C1CCCC1 | -0.5% | -3.2 | 1.9 | -0.4 | 14.2 | 0.1
Cc1ccc(NC(=O)C2CCCC2)cc1S(=O)(=O)N1CCOCC1 | -1.2% | -1.7 | -5.9 | 0.0 | -18.8 | 5.0
Cc1cccc(NC(=O)Cn2c(=O)n(CCCCCC(=O)NCc3ccc4c(c3)OCO4)c(=O)c3sccc32)c1 | 1.1% | x | -8.3 | 0.6 | x | x
O=C(NCCNc1cc(Cl)ccc1[N+](=O)[O-])c1ccco1 | 1.9% | -3.3 | -17.7 | -1.7 | -2.1 | -4.9
CNC(=S)N/N=C(\C)c1ccc(Cl)s1 | -0.6% | -2.8 | -13.7 | -0.2 | -3.3 | -12.2
CCN1CCN(Cc2c(O)ccc3c2O/C(=C\c2ccccc2)C3=O)CC1 | 1.7% | -6.0 | -1.5 | 6.4 | 5.8 | -0.6
Cc1c(CN2CCCC(C(=O)Nc3cccc(-n4cccn4)c3)C2)cnn1C (stereo not given) | -1.2% | -3.2 | 6.5 | 0.3 | x | -2.4
c1cc2nnnn2nc1N1CCCCC1 | x | -2.5 | 9.8 | -0.6 | 3.8 | -1.0
COc1ccc(C(=O)/C=C/c2ccc(O)cc2)c(O)c1CC=C(C)C | -1.1% | 0.9 | 22.4 | 0.9 | -26.9 | u
N/C(=N\OC(=O)COc1ccc([N+](=O)[O-])cc1)c1cccnc1 | -0.1% | -0.6 | -7.0 | 0.5 | 12.5 | 8.1
Cc1ccc(N(CC(O)CN2CCCC2)S(=O)(=O)c2ccccc2)cc1 (stereo not given) | x | -1.4 | 0.5 | 0.2 | -4.0 | -6.2
O=C(NC(=S)NCCCN1CCOCC1)c1ccc(Br)cc1 | 2.0% | -0.7 | 8.6 | 0.2 | -11.5 | -3.7
CCCn1nnnc1SCC(=O)N1CCCCC1 | 1.6% | -4.7 | 8.6 | 0.0 | 0.0 | 0.1
CCOC(=O)c1cc2c(=O)n3ccccc3nc2n(CC2CCCO2)c1=NC(=O)c1ccccc1F (stereo not given) | 3.4% | x | 8.5 | -0.7 | x | x
O=C(O)c1ccn2c(C(=O)c3ccc(Cl)cc3)c(-c3ccccc3)cc2c1 | -1.8% | -5.5 | 11.7 | 1.3 | 2.4 | -1.5
COC(=O)c1ccc(Oc2nc3c(c(=O)n(C)c(=O)n3C)n2Cc2ccc(Cl)c(Cl)c2)cc1 | 2.0% | x | 0.3 | -0.1 | x | x
Nc1ccc(C(=O)OCC(=O)Nc2ccc([N+](=O)[O-])cc2C(F)(F)F)cc1 | 1.8% | 3.2 | 16.2 | 0.3 | 7.4 | 3.1
CC(C)(C)OC(=O)N1CCC[C@H]1c1nnc(SCc2ccccc2Cl)o1 | 2.4% | 0.3 | 18.9 | 3.2 | 5.5 | 11.5
Cc1cccc(CSc2nc3c([nH]c4ccccc43)c(=O)n2C)c1 | 0.8% | x | -16.8 | -0.3 | x | x
CCCCCN(C(=O)CN(C)Cc1ccc(OC)cc1OC)c1c(N)n(CCCC)c(=O)[nH]c1=O | -0.9% | -4.0 | -17.7 | -0.3 | 2.8 | 3.8
Cc1cccc(C(=O)O/N=C(\N)c2ccc(Cl)cc2)c1 | 3.6% | 46.3* | -17.6 | 1.5 | x | 18.9

Two entries picked at random from the list so far, as already listed:
SMILES | PINK1 expr mod | D2 ag | TRPML1 blocker | TRPML1 agonist | CtBP-E1A inh | Six1-Eya2 blk
CCCn1nnnc1SCC(=O)N1CCCCC1 | 1.6% | -4.7 | 8.6 | 0.0 | 0.0 | 0.1
Nc1ccc(C(=O)OCC(=O)Nc2ccc([N+](=O)[O-])cc2C(F)(F)F)cc1 | 1.8% | 3.2 | 16.2 | 0.3 | 7.4 | 3.1

Going on with the list.
SMILES | PINK1 expr mod | D2 ag | TRPML1 blocker | TRPML1 agonist | CtBP-E1A inh | Six1-Eya2 blk
O=C(CN1CCN(S(=O)(=O)/C=C/c2ccccc2)CC1)Nc1ccc(N2CCOCC2)cc1 | 0.2% | -2.5 | -1.3 | 0.9 | x | -4.8
C=CCN(CC=C)C(=O)Cc1ccc(F)cc1 | 1.9% | -0.3 | -1.5 | -0.4 | -1.4 | 4.4
O=C(c1ccc(Cn2cc(Br)cn2)cc1)N1N=C(C(F)F)CC1(O)C(F)F (stereo not given) | 2.9% | 3.1 | -15.6 | 0.8 | -9.5 | -6.1
CNc1nc(Nc2ccc(C)c(Cl)c2)c2cnn(C)c2n1 | -0.7% | -2.3 | x | x | -18.9 | -24.9
CCOC(=O)CNc1nc(OCC#N)nc(N2CCOCC2)n1 | -0.6% | -2.9 | -13.4 | 0.7 | 5.3 | 6.5
COc1cccc2c1C1COC3C4CC(C(=O)O)C(C(C2)N13)N4C (stereo not given) | -1.1% | -3.2 | 4.8 | -0.5 | 0.0 | 2.3
O=C(NN=Cc1ccc(OC(F)F)cc1)c1ccc(NS(=O)(=O)c2cccs2)cc1 | -0.9% | -2.6 | 21.6 | 1.0 | x | -9.3
CC1(C)O[C@@H]2[C@H](O1)[C@@H](CO)O[C@H]2n1c(N2CCCCC2)nc2c(N)ncnc21 | -0.4% | -9.3 | -21.6 | -0.5 | -0.4 | 3.8
Cn1c(-c2ccccc2F)cc2onc(-c3ccccc3)c2c1=O | -1.1% | 1.8 | 37.9 | -0.2 | 3.0 | 17.5
COC(=O)c1c(C)nc(C)c(C(=O)OC)c1-c1ccc(OC)c(OC)c1 | -0.1% | -6.3 | 7.2 | -0.3 | -2.7 | 4.1

Part of the list above with just D2 ag and CtBP-E1A inh.
Molecule	D2 ag	CtBP-E1A inh
C=CCN(CC=C)C(=O)Cc1ccc(F)cc1	-0.3	-1.4
O=C(c1ccc(Cn2cc(Br)cn2)cc1)N1N=C(C(F)F)CC1(O)C(F)F (stereo not given)	3.1	-9.5
CNc1nc(Nc2ccc(C)c(Cl)c2)c2cnn(C)c2n1	-2.3	-18.9
CCOC(=O)CNc1nc(OCC#N)nc(N2CCOCC2)n1	-2.9	5.3
COc1cccc2c1C1COC3C4CC(C(=O)O)C(C(C2)N13)N4C (stereo not given)	-3.2	0.0
O=C(NN=Cc1ccc(OC(F)F)cc1)c1ccc(NS(=O)(=O)c2cccs2)cc1	-2.6	x

(further entries)
SMILES | PINK1 expr mod | D2 ag | TRPML1 blocker | TRPML1 agonist | CtBP-E1A inh | Six1-Eya2 blk
COc1ccc(NC(=O)CSc2nc3ccccc3c(=O)n2CCCC(=O)NCC2CCCO2)c(OC)c1 (stereo not given) | 0.0% | -1.8 | -10.3 | -1.0 | 8.2 | 2.7
C=C(C)COc1ccc2c(C)c(CC(=O)N3C[C@H]4C[C@@H](C3)c3cccc(=O)n3C4)c(=O)oc2c1C | -0.2% | -4.7 | x | x | -21.4 | 3.4
Cc1cc(C)n(-c2ccc(NC(=O)C3CCCCN3C(=O)c3cc(C)oc3C)cc2)n1 (stereo not given) | -0.8% | 0.1 | 2.9 | 0.8 | -4.5 | -2.7
Cc1ccccc1OCCC(=O)N1CCN(S(=O)(=O)c2ccc(F)cc2)CC1 | -0.3% | -4.8 | 8.6 | 0.7 | 7.1 | 1.8
O=C(Cc1cccc(C(F)(F)F)c1)Nc1ccc(S(=O)(=O)N2CCCC2)cc1 | -0.5% | -5.3 | -6.9 | -1.1 | -1.8 | -1.9
COC(=O)c1cc(C(=O)OCC(=O)c2ccc[nH]2)cc([N+](=O)[O-])c1 | 1.3% | 7.3 | 28.6 | 3.4 | -4.0 | -12.8
CO/N=C/C(c1ccc(Cl)nc1)S(=O)(=O)c1ccccc1 (stereo not given) | 0.4% | -0.7 | 9.1 | 1.2 | x | 9.4
COc1cc(CN2CCc3ccccc3C2)ccc1O | -2.0% | -2.5 | -1.9 | -0.1 | x | 6.2
COc1ccc(CN2C(=O)C(=O)N(CC(N)=O)C2=O)cc1 | 1.7% | -0.9 | 0.9 | 0.9 | -4.4 | 1.1
CCOC(=O)c1c(C)c(C#N)c2c3ccccc3ccn12 | 2.1% | -2.7 | 5.6 | -0.4 | 7.5 | 9.1
